PKD1 inh: inhibitors of human PKD1 kinase; Q15139; PKD1 kinase fluorescence polarization assay; inhibition, %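 (about 10 µM by stock and volumes)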; 200,000 tested, 0.056% active;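 active means inhibition of 50% or more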;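 further: controls were vehicle for no effect and a reference inhibitor for full effect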
Target sequence (Q15139 whole entry, looked up): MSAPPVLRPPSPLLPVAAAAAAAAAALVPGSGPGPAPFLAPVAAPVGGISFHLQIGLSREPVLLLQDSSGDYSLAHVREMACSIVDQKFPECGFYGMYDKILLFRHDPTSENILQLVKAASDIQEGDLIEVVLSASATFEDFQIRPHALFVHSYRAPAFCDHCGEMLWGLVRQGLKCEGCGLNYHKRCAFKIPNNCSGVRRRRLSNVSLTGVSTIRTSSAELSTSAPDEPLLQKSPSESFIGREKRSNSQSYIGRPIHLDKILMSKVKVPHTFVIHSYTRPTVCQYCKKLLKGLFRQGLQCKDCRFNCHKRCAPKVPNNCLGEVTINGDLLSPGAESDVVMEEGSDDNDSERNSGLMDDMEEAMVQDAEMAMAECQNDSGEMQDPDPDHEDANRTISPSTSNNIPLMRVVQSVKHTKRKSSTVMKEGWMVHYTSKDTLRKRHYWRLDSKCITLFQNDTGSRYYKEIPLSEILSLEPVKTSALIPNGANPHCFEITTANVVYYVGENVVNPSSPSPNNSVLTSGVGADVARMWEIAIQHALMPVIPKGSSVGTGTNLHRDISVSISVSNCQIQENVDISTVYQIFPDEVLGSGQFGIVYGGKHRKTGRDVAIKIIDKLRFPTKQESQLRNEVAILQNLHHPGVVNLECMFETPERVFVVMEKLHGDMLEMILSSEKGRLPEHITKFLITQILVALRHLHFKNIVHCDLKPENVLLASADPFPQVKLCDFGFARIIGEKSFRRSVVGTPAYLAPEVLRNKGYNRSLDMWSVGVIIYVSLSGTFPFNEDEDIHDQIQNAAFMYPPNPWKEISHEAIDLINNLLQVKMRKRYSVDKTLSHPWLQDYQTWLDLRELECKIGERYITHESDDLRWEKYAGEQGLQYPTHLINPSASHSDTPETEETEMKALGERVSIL
INS promoter inh: TRM-6 insulin promoter activity inhibition; TRM-6 cells (human fetal islet line), insulin promoter-eGFP reporter, imaging; reporter expression induced with tamoxifen; inhibition, % at 2 µM; 130,000 tested, 0.9% active; AID 1273;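 active means inhibition above the mean plus 3 SD, with well images judged a real hit on visual review, cut at about 60% in these data, passing the limit was not always enough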
GALR2 agonist: GALR2 (human) receptor agonism. O43603. GALR2-expressing cells, agonist activation read-out. activation, %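 (tested at 5 µM)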. 140,000 tested, 0.48% active. AID 803;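 active means above mean plus 3 SD of all compounds, about 5% in these data, not always enough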;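 further: 0% = vehicle buffer wells and 100% = reference agonist at full effect; tested in CHO reporter cells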
HSV augment: HSV replication enhancement; HSV replication augmentation in cells, fold increase; 220,000 tested, 0.005% active; maximum fold increase;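 active means peak rise of 1.5-fold or more in the series; tested in PC3 cells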;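 further: first round at 10 µM; read as green reporter fluorescence; hits show the peak of a series up to 25 µM; 1 = signal of infected wells without compound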
RGS16-Gao: RGS16-Galphao interaction regulator (human) | bead-based flow cytometry RGS16-Galphao binding, fluorescence; actives lie on both sides | binding response (% of control), % at 10 µM | 220,000 tested, 0.38% active;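 active means below 25% or above 175%, edge rows of some plates excepted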;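 further: Galphao activated by GDP with aluminum fluoride before binding; 100% = wells without compound and 0% = beads without RGS; some results beyond the cut were filed as inactive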
INS promoter inh cell count: also measured in INS promoter inh; calls as there; normalized cell count, %; measured here: cell count, toxicity; reference of the scale not given here;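 cells exposed to compound for 48 h; stained nuclei by imaging scaled within each plate; lower means fewer cells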
HSV augment primary fold: further read-out of HSV augment, marked with its call; fold increase; compound at 10 µM; measured here: primary screen fold increase 10 uM; tested in PC3 cells;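 GFP signal in the first replicate; 1 = infected wells without compound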
An asterisk follows results filed as active; i = inactive; nt = not tested or not shown; & = joins results of further samples.

Sequence of screens – PKD1 inh | INS promoter inh | INS promoter inh cell count | GALR2 agonist | HSV augment | HSV augment primary fold | RGS16-Gao
> O=C(O)C1CC(=O)N(CCc2ccccc2)C1 (stereo unspecified)
  -1 | 30 | 77 | -3.4 | i | 1.1 | 111
> COc1ccc(-c2noc(CCC(=O)NCCCN3CCC(Cc4ccccc4)CC3)n2)cc1
  -3 | -49 | 71 | 0.3 | i | 0.83 | 98
> CCOC(=O)C1(CC2CC2)CCN(Cc2cn[nH]c2-c2cccc(F)c2)CC1
  -1 | nt | nt | nt | i | 1.1 | 103
> O=C(COC(=O)c1cccnc1Cl)c1ccccc1
  0 | -8 | 75 | -1.3 | i | 1.3 | 94
> CN1CCN(C(=S)NC(=O)c2ccc(C(C)(C)C)cc2)CC1
  -8 | 67* | 120* | -0.6 | nt | nt | 87
> O=[N+]([O-])c1cnc2ccccn12
  nt | nt | nt | nt | i | 1.1 | 105
> COc1ccc(CSCC(=O)N/N=C/c2ccccc2O)cc1
  1 | 75* | 54* | nt | i | 0.85 | 92
> COc1ccc(CCNCC(=O)Nc2ccc(C)c(S(=O)(=O)N(C)C)c2)cc1OC
  nt | nt | nt | nt | i | 1.1 | 103
> O=C(COC(=O)c1cccnc1Cl)c1ccc2c(c1)OCCO2
  -10 | nt | nt | nt | i | 0.99 | 100
> O=C(COC(=O)c1cccc(F)c1)Nc1cccnc1Cl
  1 | 50 | 140 | nt | i | 1 | 98
> CCCc1ccc(Oc2cc(Cl)nc(N)n2)cc1
  -10 | 34 | 85 | -1.2 | i | 1.1 | 102
> CCOC(=O)C1(C)/C(=N/Nc2ccccc2OC)C(=O)C(=O)N1c1ccccc1 (stereo unspecified)
  -7 | nt | nt | nt | i | 1 | 104
> Cc1cccc(-c2noc(CCC(=O)NCc3ccco3)n2)c1
  -9 | 47 | 106 | -0.5 | i | 0.78 | 74
> Cc1ccc2nc(NCc3ccccc3)c(C=NCc3cccnc3)c(=O)n2c1
  nt | nt | nt | nt | i | 0.99 | 99
> CC(c1ccccc1)n1cc(C(=O)NCc2ccccn2)nn1 (stereo unspecified)
  -2 | -68 | 29 | -1.9 | i | 1 | 98
> CC(CN1CCCCC1)OC(=O)c1ccc2c(c1)OCO2 (stereo unspecified)
  -6 | 8 | 139 | -2.3 | i | 1 | 93
> C#CCOCCOCCOCCNc1nc(N2CCOCC2)nc(N2CCN(C(=O)[C@H]([C@@H](C)O)n3cc(CCCCN)nn3)CC2)n1
  1 | 40 | 127 | -0.6 | i | 0.84 | 61
> CCCc1cnc(N2CCN(S(C)(=O)=O)CC2)nc1
  nt | nt | nt | nt | i | 1.1 | 94
> OC1CCCN(Cc2cccc3ccccc23)C1 (stereo unspecified)
  -15 | -42 | 118 | -1.9 | i | 0.92 | 103
> CC(=O)Nc1c2c3c(cccc3n(C)c1=O)C(=O)c1ccccc1-2
  4 | 21 | 84 | -2.8 | i | 1.1 | 105
> COCCCNc1nc2c(c(=O)n(C)c(=O)n2C)n1Cc1cccc(OC)c1
  0 | -57 | 114 | -3.9 | i | 1.1 | 98
> COC(=O)c1c(NC(=O)/C=C/C(=O)O)sc(C)c1-c1ccc(C)cc1
  0 | 25 | 90 | nt | i | 1.1 | 96
> CC(=O)c1sc(NC(=O)c2ccccc2F)nc1C
  -8 | nt | nt | -0.4 | i | 0.65 | 100
> CNC(=S)N/N=C(\C)c1ccc2c(c1)OCCO2
  9 | 6 | 41 | -2.1 | i | 1.1 | 117
> Cc1ccc(S(=O)(=O)N2CCN(C(=O)COC(=O)COc3ccccc3)CC2)cc1
  -9 | nt | nt | -1.1 | i | 1 | 103
> COc1ccc(C2CC3(O)NC(=O)C(C#N)(C3C)C2(C#N)C#N)cc1 (stereo unspecified)
  nt | nt | nt | nt | i | 1.2 | 102
> Cc1cc(C)n(-c2cc(Cl)ccc2[N+](=O)[O-])n1
  -5 | nt | nt | nt | i | 0.94 | 115
> CS(=O)(=O)N1CCN(C(=O)c2ccncc2)CC1
  -2 | -19 | 138 | -0.9 | i | 0.94 | 77
> COc1cccc(F)c1C(C[N+](=O)[O-])c1c(N)n(C)c(=O)n(C)c1=O (stereo unspecified)
  nt | nt | nt | nt | i | 0.64 | 97
> CC(=O)OCP(C)(=O)COC(C)=O
  -2 | nt | nt | -1.5 | i | 1.1 | 102

Later entries.
Sequence of screens – PKD1 inh | INS promoter inh | INS promoter inh cell count | GALR2 agonist | HSV augment | HSV augment primary fold | RGS16-Gao
> O=C(NC(=S)Nc1nc(-c2cccc3ccccc23)cs1)c1cc2ccccc2o1
  1 | nt | nt | -0.1 | i | 1.1 | 102
> CC(C)(C)c1ccc(C(=O)N2CCC(C(=O)NCc3ccncc3)CC2)cc1
  -2 | -7 | 105 | -1.2 | i | 0.8 | 91
> CSCc1c(C(=O)NC2CCCc3ccccc32)oc2ccccc12 (stereo unspecified)
  0 | -10 | 128 | -0.4 | i | 0.98 | 95
> C=CC[C@@H]1C=C[C@H](O/N=C/c2ccc(C(=O)N3[C@H](c4ccc(C)cc4)[C@@H](C)CC[C@H]3C(=O)OC)cc2)[C@@H](CO)O1
  -9 | -33 | 60 | -0.9 | nt | nt | 106
> CC(C)(C)NC(=O)/C=C/c1ccc(C(F)(F)F)cc1
  -8 | -322 | 90 | -0.4 | i | 0.84 | 66
> COc1ccc(N=C2SC(C(N)=O)CC(=O)N2CCc2ccc(OC)c(OC)c2)cc1 (stereo unspecified)
  -7 | -47 | 181 | -2.3 | i | 1 | 99
> O=C1CSC(c2cccnc2)N1c1ccccc1 (stereo unspecified)
  nt | nt | nt | nt | i | 0.99 | 102
> O=C(O)COc1cnc2ccccc2n1
  -4 | 10 | 105 | nt | i | 0.97 | 92
> NCC(O)COc1ccc2c(c1)OCO2 (stereo unspecified)
  -6 | -23 | 98 | 0.8 | i | 1 | 106
> O=C(NCCc1c[nH]c2ccccc12)/C(=C\c1cccnc1)NC(=O)c1cccs1
  -2 | 17 | 66 | -1.9 | i | 0.99 | 116
> CCOC(=O)/C(=N\Nc1ccccc1)P(=O)(c1ccccc1)c1ccccc1
  nt | nt | nt | nt | i | 0.98 | 100
> COc1cc(/C=C/C(=O)c2ccc(F)cc2)cc(OC)c1OC
  -6 | 47 | 105 | nt | i | 0.74 | 102
> Cc1ccc(C(=O)Nc2ccccc2C(=O)NCc2ccco2)cc1S(=O)(=O)N1CCCCC1
  -14 | -24 | 80 | 0.4 | i | 0.86 | 98
> Cn1c(CSc2nc3ccc(Br)cc3[nH]2)nc2ccccc21
  2 | -39 | 134 | -2.1 | i | 0.87 | 102
> O=C(O)[C@H](Cc1ccccc1)NC(=O)N1CCN(c2ccc(F)cc2)CC1
  nt | nt | nt | nt | i | 0.96 | 97
> CCCCOc1ccc(NC2=NC3(CCCC3)N=C(N)N2)cc1
  1 | 26 | 82 | -1.6 | i | 0.76 | 102
> CCOC(=O)N1CCN(c2nc3ccccc3n3cnnc23)CC1
  nt | nt | nt | nt | i | 0.92 | 98
> Cc1noc2ncnc(N3CCN(c4cccc(Cl)c4)CC3)c12
  -3 | nt | nt | nt | i | 0.86 | 102
> Cc1ccc2cc(CCNC(=O)c3cccs3)c(=O)[nH]c2c1
  -10 | 45 | 98 | -0.5 | nt | nt | 89
> COc1ccc(/C=N/NC(=O)COc2ccc(Cl)cc2Cl)cc1Cn1nc(C)cc1C
  -7 | -20 | 56 | 1.1 | i | 0.84 | 110
> Cc1cccc(N(C(=O)CNC(=O)c2ccco2)C(C(=O)NCC2CCCO2)c2ccccc2)c1 (stereo unspecified)
  -9 | nt | nt | nt | i | 1 | 109
> O=C(CCn1c(=O)oc2ccccc21)Nc1nccs1
  1 | 18 | 146 | -1.2 | i | 1 | 100
> Cc1ccc(C(=O)Oc2cccc(NC(=O)c3cccs3)c2)cc1S(=O)(=O)N1CCOCC1
  2 | 11 | 65 | 3.5 | i | 0.9 | 102
> Cc1ccc(Nc2nnc(SCc3ccccc3)s2)cc1
  -4 | 100* | 9.4* | -1.2 | i | 0.99 | 99
> c1ccc(-c2nc[nH]c2-c2ccccc2)cc1
  2 | nt | nt | -2.2 | i | 0.81&0.89 | 111&99
> O=C(O)Cc1ccc(NS(=O)(=O)c2c(Cl)cccc2Cl)cc1
  -7 | -53 | 125 | nt | i | 0.91 | 103
> Cc1nc2cc(NC(=O)COc3ccc(C#N)cc3)ccc2n1-c1ccccc1
  4 | 64 | 133 | -1.8 | i | 0.89 | 102
> Cc1ccc(-c2nn3c(C)nnc3s2)cc1NCc1c(F)cccc1Cl
  -3 | -8 | 144 | 1.2 | i | 0.76 | 98
> C#CCn1c(=NC(=O)c2sc3ccccc3c2Cl)sc2cc(S(N)(=O)=O)ccc21
  14 | -15 | 120 | -0.6 | i | 0.8 | 107
> CC(C)CC1C2C(=O)N(c3ccccc3)C(=O)C2ON1c1ccccc1 (stereo unspecified)
  nt | nt | nt | nt | i | 1 | 95

Molecules shown so far that have a tert-butyl group, in the order listed:
Sequence of screens – PKD1 inh | INS promoter inh | INS promoter inh cell count | GALR2 agonist | HSV augment | HSV augment primary fold | RGS16-Gao
> CN1CCN(C(=S)NC(=O)c2ccc(C(C)(C)C)cc2)CC1
  -8 | 67* | 120* | -0.6 | nt | nt | 87
> CC(C)(C)c1ccc(C(=O)N2CCC(C(=O)NCc3ccncc3)CC2)cc1
  -2 | -7 | 105 | -1.2 | i | 0.8 | 91
> CC(C)(C)NC(=O)/C=C/c1ccc(C(F)(F)F)cc1
  -8 | -322 | 90 | -0.4 | i | 0.84 | 66

(next part)
Sequence of screens – PKD1 inh | INS promoter inh | INS promoter inh cell count | GALR2 agonist | HSV augment | HSV augment primary fold | RGS16-Gao
> CCOc1cc(CNCCO)cc(Br)c1OCc1cccs1
  -9 | nt | nt | -0.6 | i | 0.75 | 64
> O=C1CCN(S(=O)(=O)c2ccc(Cl)cc2)N1
  0 | 17 | 119 | -2.7 | i | 0.88 | 97
> O=C(NN=C1CCCCCCCCCCC1)c1cccc(S(=O)(=O)N2CCOCC2)c1
  -6 | 27 | 82 | -0.7 | i | 0.94 | 98
> CCCCNC(=S)N1CCN(Cc2ccc3c(c2)OCO3)CC1
  -6 | 28 | 73 | nt | i | 1 | 106
> N#CCc1cc2ccc3cccc4ccc(c1)c2c34
  nt | nt | nt | nt | i | 0.93 | 104
> CCOc1ccc2nc(NC(=O)C(CCSC)NS(=O)(=O)c3cccs3)sc2c1 (stereo unspecified)
  7 | 17 | 99 | -0.7 | i | 0.82 | 62
> Cc1ccc(OCc2n[nH]c(=S)n2Cc2ccccc2)cc1
  -8 | nt | nt | nt | i | 0.93 | 101
> N#CC(C(=O)Nc1cccc(Cl)c1)=C1Nc2ccccc2N1
  -10 | -14 | 96 | -0.8 | i | 0.71 | 104
> CCOc1ccc(Br)cc1S(=O)(=O)Nc1ccc(Cl)c(S(=O)(=O)N(C)C)c1
  2 | nt | nt | 0.1 | i | 1.1 | 98
> CCOC(=O)c1ccc(N=C2C(=S)N(c3ccc(C(=O)OCC)cc3)C(=N)N2/N=C/c2ccccc2)cc1
  0 | -52 | 103 | -2.1 | i | 0.8 | 56
> CC(C)CCn1c(CN2CCN(Cc3ccccc3)CC2)nc2c1c(=O)n(C)c(=O)n2C
  -1 | nt | nt | -2.3 | i | 0.82 | 100
> Cc1cc(C)cc(NC(=O)N2c3ccccc3NC(=O)CC2C)c1 (stereo unspecified)
  nt | nt | nt | nt | i | 0.98 | 103
> Nc1nn(-c2ccccc2)c(N)c1N=Nc1ccccc1
  -1 | 0 | 68 | -0.5 | i | 0.67 | 97
> O=C(c1ccccc1)n1nnc2ccccc21
  3 | nt | nt | -0.5 | i | 0.95 | 98
> COc1cc(COCC(O)CN2CCc3ccccc3C2)cc(OC)c1OC (stereo unspecified)
  12 | -16 | 79 | nt | i | 1.2 | 99

Another view of some results above.
> N#CCc1cc2ccc3cccc4ccc(c1)c2c34
  PKD1 inh = nt; INS promoter inh = nt; INS promoter inh cell count = nt; GALR2 agonist = nt; HSV augment = i; HSV augment primary fold = 0.93; RGS16-Gao = 104

> CCOc1ccc(Br)cc1S(=O)(=O)Nc1ccc(Cl)c(S(=O)(=O)N(C)C)c1
  PKD1 inh = 2; INS promoter inh = nt; INS promoter inh cell count = nt; GALR2 agonist = 0.1; HSV augment = i; HSV augment primary fold = 1.1; RGS16-Gao = 98

> O=C1CCN(S(=O)(=O)c2ccc(Cl)cc2)N1
  PKD1 inh = 0; INS promoter inh = 17; INS promoter inh cell count = 119; GALR2 agonist = -2.7; HSV augment = i; HSV augment primary fold = 0.88; RGS16-Gao = 97

> CCOc1ccc2nc(NC(=O)C(CCSC)NS(=O)(=O)c3cccs3)sc2c1 (stereo unspecified)
  PKD1 inh = 7; INS promoter inh = 17; INS promoter inh cell count = 99; GALR2 agonist = -0.7; HSV augment = i; HSV augment primary fold = 0.82; RGS16-Gao = 62

Bioassay records from PubChem BioAssay.
